# RGS16-Gao HTS: regulators of human RGS16-Galphao interaction. O15492+P09471. bead-based flow cytometry RGS16-Galphao binding, fluorescence; actives lie on both sides. binding response (% of control), % at 10 µM. 0.38% of 220,000 active;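 active = below 25% or above 175%, edge rows of some plates excepted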;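 note: Galphao activated by GDP with aluminum fluoride before binding; 100% = wells without compound and 0% = beads without RGS; some results beyond the cut were filed as inactive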
# HSV augment: HSV replication enhancement; maximum fold increase; AID 1956; HSV replication augmentation in cells, fold increase; 0.005% of 220,000 active;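 active = peak rise of 1.5-fold or more in the series; tested in PC3 cells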;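 note: first round at 10 µM; read as green reporter fluorescence; hits show the peak of a series up to 25 µM; 1 = signal of infected wells without compound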
# PKD1 kinase inh: PKD1 (human) kinase inhibition | Q15139 | PKD1 kinase fluorescence polarization assay | inhibition, %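 (about 10 µM by stock and volumes)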 | 0.056% of 200,000 active;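 active = inhibition of 50% or more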;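 note: controls were vehicle for no effect and a reference inhibitor for full effect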
# Target sequence (Q15139 whole entry, looked up): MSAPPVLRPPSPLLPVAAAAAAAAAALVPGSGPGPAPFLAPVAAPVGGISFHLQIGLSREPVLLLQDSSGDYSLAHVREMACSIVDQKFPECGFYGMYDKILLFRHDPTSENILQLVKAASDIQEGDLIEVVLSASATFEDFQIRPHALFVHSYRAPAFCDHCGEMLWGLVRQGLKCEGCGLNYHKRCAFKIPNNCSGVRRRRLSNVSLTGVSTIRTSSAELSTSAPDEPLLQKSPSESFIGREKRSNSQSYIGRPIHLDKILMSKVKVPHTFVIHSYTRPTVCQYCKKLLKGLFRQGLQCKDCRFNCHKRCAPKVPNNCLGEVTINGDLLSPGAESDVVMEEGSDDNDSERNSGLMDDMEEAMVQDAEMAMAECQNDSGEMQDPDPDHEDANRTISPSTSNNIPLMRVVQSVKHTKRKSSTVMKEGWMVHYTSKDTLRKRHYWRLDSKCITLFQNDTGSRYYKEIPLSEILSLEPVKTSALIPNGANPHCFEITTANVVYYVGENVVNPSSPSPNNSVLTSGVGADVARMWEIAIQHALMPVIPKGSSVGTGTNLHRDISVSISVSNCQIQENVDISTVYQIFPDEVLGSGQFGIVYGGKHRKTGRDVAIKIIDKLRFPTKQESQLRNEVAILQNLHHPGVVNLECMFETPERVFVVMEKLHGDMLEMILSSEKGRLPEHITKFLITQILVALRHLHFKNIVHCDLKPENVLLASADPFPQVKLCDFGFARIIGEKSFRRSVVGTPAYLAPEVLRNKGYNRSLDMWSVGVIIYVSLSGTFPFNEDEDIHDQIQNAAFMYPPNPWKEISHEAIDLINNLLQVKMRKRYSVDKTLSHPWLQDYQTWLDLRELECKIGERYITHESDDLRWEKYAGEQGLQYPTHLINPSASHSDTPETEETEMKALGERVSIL
# Insulin prom inh: TRM-6 insulin promoter activity inhibition; 0.9% of 130,000 active; inhibition, % at 2 µM; TRM-6 cells (human fetal islet line), insulin promoter-eGFP reporter, imaging; reporter expression induced with tamoxifen;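 active = inhibition above the mean plus 3 SD, with well images judged a real hit on visual review, cut at about 60% in these data, passing the limit was not always enough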
# GALR2 ag: agonists of human galanin receptor 2 (GALR2); O43603; GALR2-expressing cells, agonist activation read-out; activation, %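 (tested at 5 µM)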; 0.48% of 140,000 active;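 active = above mean plus 3 SD of all compounds, about 5% in these data, not always enough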;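 note: 0% = vehicle buffer wells and 100% = reference agonist at full effect; tested in CHO reporter cells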
# Insulin prom inh cell count: second read-out of Insulin prom inh, no call of its own (marks repeat the call); normalized cell count, %; measured here: cell count, toxicity; reference of the scale not given here;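 cells exposed to compound for 48 h; stained nuclei by imaging scaled within each plate; lower means fewer cells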
# HSV augment primary fold: second read-out of HSV augment, no call of its own (marks repeat the call); fold increase; compound at 10 µM; measured here: primary screen fold increase 10 uM; tested in PC3 cells;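 GFP signal in the first replicate; 1 = infected wells without compound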
# Numbers without * were called inactive; i = inactive; · = not tested or not shown.
SMILES	RGS16-Gao HTS	HSV augment	HSV augment primary fold	PKD1 kinase inh	Insulin prom inh	Insulin prom inh cell count	GALR2 ag
CCOC(=O)/C(=N/Nc1ccccc1)Sc1nnc(CCc2ccccc2)n1-c1ccccc1	101	i	0.99	-15	·	·	-0.3
C=CCN1C(=O)/C(=C/c2ccc(OC)cc2)S/C1=N/c1nccs1	109	i	0.86	-3	·	·	0.7
O=P(CCN1CCCCC1)(c1ccccc1)c1ccccc1	98	i	0.93	-3	-31	45	-0.7
CC1CCN(c2ccc([N+](=O)[O-])c(SCCO)c2)CC1	84	i	0.88	·	·	·	·
COc1ccc(OC)c(NC(=O)Cn2c(-c3ccc(Cl)cc3)noc2=O)c1	105	i	0.89	8	·	·	-2.1
O=C(Nc1nc(-c2nc3ccccc3s2)cs1)C1COc2ccccc2O1 (stereo not drawn)	101	i	0.92	-9	·	·	-0.5
Cc1ccnc(Sc2ccc([N+](=O)[O-])cn2)n1	103	i	0.98	-1	·	·	·
COc1ccnc(Oc2ccc(C)cc2C)c1C#N	94	i	0.81	-8	-29	148	-1.1
Cc1cc(-c2csc(NC(=O)c3cc4ccccc4o3)n2)c(C)n1C	103	i	0.99	-13	30	66	-0.8
Cc1ccc(NC(=O)c2cccc3c2C(=O)N(C2CCCCC2)C3)cc1	101	i	0.94	-13	-7	109	-1.5
Nc1ccc(Nc2ccccc2N)cc1	82	i	1	-1	·	·	-0.7
O=C(c1ccccc1-c1nc(-c2ccc(Cl)cc2)no1)N1CCCC1	98	i	0.88	0	-24	140	-1.2
O=C1CC(c2ccc(F)cc2)C(n2cncn2)C(O)=C1C1NCCc2ccccc21 (stereo not drawn)	98	i	1	0	69	111	·
O=C1CCCCC1C(Nc1ccc(Br)cc1)c1ccccc1 (stereo not drawn)	103	·	·	9	31	119	-0.1
CCOC(=O)c1cccc(NC(=S)N2CCN(c3ncc4c(=O)c(C(=O)O)cn(CC)c4n3)CC2)c1	116	i	0.88	10	43	36	·
CCCSc1nnc(CN2CCOCC2)n1C	109	i	1	-13	-419	83	-1.1

# Retrieved by compound from above:
SMILES	RGS16-Gao HTS	HSV augment	HSV augment primary fold	PKD1 kinase inh	Insulin prom inh	Insulin prom inh cell count	GALR2 ag
O=C1CC(c2ccc(F)cc2)C(n2cncn2)C(O)=C1C1NCCc2ccccc21 (stereo not drawn)	98	i	1	0	69	111	·
CCCSc1nnc(CN2CCOCC2)n1C	109	i	1	-13	-419	83	-1.1

# Other entries follow.
SMILES	RGS16-Gao HTS	HSV augment	HSV augment primary fold	PKD1 kinase inh	Insulin prom inh	Insulin prom inh cell count	GALR2 ag
COC(=O)c1ccc(NC(=O)C(=O)N2CCN(C(=S)Nc3cccc(OC)c3)CC2)cc1	107	i	0.86	-2	-11	130	0.1
CCS(=O)(=O)c1ccc(O)c(NC(=O)Nc2ccc(C(C)(C)C)cc2)c1	99	i	0.99	·	·	·	·
COc1ccc(OC)c(S(=O)(=O)n2cnc3cc(C)c(C)cc32)c1	104	i	0.88	-8	3	101	0.8
COc1ccc(C)cc1S(=O)(=O)N(CC(=O)Nc1cccc([N+](=O)[O-])c1)c1cc(C)cc(C)c1	108	i	0.88	-8	29	78	-2.6
COc1ccc(NC(=O)C(c2ccc(C)cc2)N(C)C(=O)Cc2cccs2)cc1 (stereo not drawn)	118	i	0.94	-10	-343	25	-1.8
CCCCCCCCS(=O)c1sc2nc(C)cc(C)c2c1N (stereo not drawn)	95	i	0.96	-7	-15	55	-2.8
NC(=O)c1cccnc1Oc1ccc(Cl)cc1Cl	96	i	0.93	·	·	·	·
CCc1ccc(NC(=O)CSc2nnc(Cc3cccn3C)n2-c2ccc(F)cc2)cc1	77	i	0.7	-9	-29	101	-0.9
C=CCn1c(SCCC)nc(O)cc1=O	113	i	0.81	-3	-6	138	-1.5
CCOC(=O)N1CCN(C(=O)Cn2c(C)cc3ccccc3c2=O)CC1	101	i	1	-5	4	144	-3.7
CCCOC(=O)c1ccc(NC(=O)c2ccccc2OC)cc1	103	i	1.2	0	-24	153	·
CC(=O)Nc1ccc(NCN2C(=O)C3C4CCC(C4)C3C2=O)cc1 (stereo not drawn)	103	i	0.86	-8	0	101	-1.4
Cc1cc(Oc2ccc(-c3nnc(-c4ccccc4)o3)cc2[N+](=O)[O-])ccc1Cl	101	i	1.1	9	3	77	-1.2
COC(=O)/C(=C\C=C\c1ccccc1)NC(=O)c1ccccc1	108	i	1	5	·	·	·
Cn1c(SCC(=O)NCc2ccc(F)cc2)nc2c([nH]c3ccccc32)c1=O	98	i	1.1	1	-53	109	·
COc1ccc(CNC(=O)Cn2cc3c(n2)CCCCC3)cc1	105	i	0.87	-2	·	·	-2.0
O=C(NCc1ccc(F)cc1)c1cnn2ccccc12	175	i	0.87	4	·	·	-2.3
Cc1ccc2cc(CCNC(=O)c3ccc4c(c3)OCO4)c(=O)[nH]c2c1	101	i	0.93	-2	·	·	-2.5
CCOC(=O)c1ccc(-n2ccnc2)c(NC(=O)c2ccc(Cl)cc2)c1	77	i	1.1	-6	-11	87	-1.1
Cc1cc(=O)n(CCc2ccccc2)c(O)c1C#N	106	i	1	-6	-5	94	-3.5
COc1ccc(Cc2nnc(Nc3ccc(Cl)cc3)[nH]c2=O)cc1	100	i	0.93	·	·	·	·
Cc1cc2n(c(=O)c1C#N)CCCN2c1cccc(Cl)c1	108	i	0.98	-2	50	158	-0.4
Cc1cc(C)c2oc(C(=O)N(Cc3ccccc3)c3ccccn3)cc(=O)c2c1	108	i	0.99	·	·	·	·
Cc1ccnc(NC(=O)c2ccc(N3C(=O)CCC3=O)cc2)c1	99	i	0.96	-6	16	105	-1.6
CSc1nc2ccc(NC(=O)c3ccc(Cl)s3)cc2s1	104	·	·	-6	·	·	·
Cc1cc(OCc2nn[nH]n2)c2c(C)c(CC(=O)O)c(=O)oc2c1	97	i	0.99	-5	·	·	-1.4
COc1ccc(CCn2c(-c3ccc(F)cc3)nc3c(c(=O)c4ccccc4n3C)c2=O)cc1OC	98	i	1.1	·	·	·	·
CN1CCN(C(=O)C2=C[C@@H](c3ccccc3)C[C@@H](OCc3ccc(CO)cc3)O2)CC1	97	i	1.2	3	·	·	·
O=C1COc2ccc(C(=O)COC(=O)CCSc3ccccc3)cc2N1	105	i	1.1	·	·	·	·
Cc1ccc(NC(=O)C2OCCc3ccccc32)cc1 (stereo not drawn)	106	i	0.79	-11	·	·	·
S=C(NNc1cccc(Cl)c1)NC1CCCCC1	95	i	0.93	0	·	·	·
CC1=CC(=C2N=C(c3ccccc3)OC2=O)C=C(C)O1	99	i	0.95	2	·	·	-1.5
O=C(O)CCCC(=O)Nc1ccccc1-n1ccnc1	84	i	0.87	-12	·	·	-0.9
COc1ccc(CNC(=O)CSc2nnnn2-c2ccc(O)cc2)cc1	99	i	0.9	4	·	·	-2.7
Cc1ccc(CNC(=O)c2ccccc2CCc2ccccc2)cc1	101	i	0.9	-6	-42	100	-2.7
CCn1c(SCC(=O)N/N=C/c2ccccc2OCC(=O)O)nnc1-c1ccccc1	98	i	1	·	·	·	·
CCNC(=S)NN=C1CCC(C(C)(C)C)CC1 (stereo not drawn)	89	·	·	-6	8	104	-1.0
Cc1cc2nc(-c3ccc(SCC(=O)NC(C)C)nc3)[nH]c2cc1C	113	i	0.77	5	43	197	·
O=C(NC1CC1)C1CCN(C2CCN(C(=O)/C=C/c3cccc(F)c3F)CC2)CC1	109	i	1.2	-6	·	·	·
CN1C=CC=C/C1=C1\SC(=S)N(C2CCCCC2)C1=O	101	i	0.93	-13	·	·	-1.4
COCCNC(=O)C(c1ccc(Cl)cc1)N(C(=O)Cn1nnc2ccccc21)c1cccnc1 (stereo not drawn)	94	i	0.92	1	·	·	·
Cc1cc(C)nc(NS(=O)(=O)c2ccc(NC(=O)Cn3c(=O)oc4ccccc43)cc2)n1	102	i	0.98	-5	·	·	-1.4
O=C(Nc1ccc(N2CCOCC2)cc1)c1ccc([N+](=O)[O-])cc1	78	i	1	-10	23	84	·
O=C(CCc1ccccc1)NNC(=S)Nc1ccc(F)cc1	100	i	0.87	10	8	115	·
CC(=O)C1=C(O)C(=O)N(Cc2cccnc2)C1c1ccccc1 (stereo not drawn)	99	i	0.85	-1	39	139	-1.0
Cc1cc(C)c2c(=O)n(CC(=O)Nc3ccc(Cl)cc3)sc2n1	12*	i	0.98	·	·	·	·
Nc1nc2ccc(N3CCOCC3)cc2s1	98	i	0.93	-3	-11	91	-0.1
CC(=O)Nc1ccc(N2C(=O)CC(N3CCSCC3)C2=O)cc1 (stereo not drawn)	105	i	1.3	-6	·	·	·
COc1ccc(Nc2nc(N)nc(CN3CCN(c4ccccn4)CC3)n2)cc1	90	i	0.89	-11	43	74	0.0
Cc1csc(NC(=O)CSc2nnc(NC(=O)C3CC(=O)N(c4ccccc4)C3)s2)n1 (stereo not drawn)	11	i	0.9	-3	19	117	0.3
CC(C)NC(=O)CCNC(=O)c1ccc(F)cc1	98	i	0.92	-6	67	82	-3.2
O=S(=O)(ON(c1ccccc1)S(=O)(=O)c1ccccc1)c1ccccc1	107	i	1.1	4	-8	116	-1.2
Cc1ccsc1C1CC(=O)OC2=C1C(=O)CC(C)(C)C2 (stereo not drawn)	105	i	0.77	13	·	·	·
CC(C)CC(=O)NC(=S)Nc1ccc(NC(=O)c2cccs2)cc1	105	i	0.78	2	9	107	-1.7
COCc1cc(=O)[nH]c(-c2ccccc2OC(F)(F)F)n1	97	i	1	·	·	·	·
O=C(NCC1CCCO1)c1cccs1 (stereo not drawn)	107	i	0.9	9	·	·	-1.2

# (list continues)
SMILES	RGS16-Gao HTS	HSV augment	HSV augment primary fold	PKD1 kinase inh	Insulin prom inh	Insulin prom inh cell count	GALR2 ag
Cc1ccc(OCC(=O)Nc2ccc(N3CCN(S(C)(=O)=O)CC3)cc2)cc1	100	i	1	-4	·	·	·
CCCn1c(O)c(N=NC(=O)c2cccnc2)c2cc(Br)ccc21	98	i	0.99	·	·	·	·
CCOc1cc(C(=O)N/N=C/c2ccsc2)cc(OCC)c1OCC	103	i	0.65	8	12	88	-0.2
COc1ccccc1CNC(=O)CSc1nn2c(=O)c(C(C)(C)C)nnc2s1	106	·	·	-3	-21	144	·
O=c1c2cn[nH]c2[nH]c(=S)n1-c1ccccc1F	102	i	1.1	-5	·	·	-3.8
COc1ccc(NC(=S)N(Cc2ccc(N(C)C)cc2)Cc2ccco2)cc1	103	i	0.84	-11	-19	56	-1.9
Cc1cc(/C=N/n2c(COc3ccccc3C)nc3ccccc3c2=O)c(O)c([N+](=O)[O-])c1	74	i	0.95	4	·	·	-1.7
CCc1ccccc1-n1c(SCC(=O)N2CCCC2)nc2[nH]ncc2c1=O	105	i	1	-3	·	·	·
CCOC(=O)CSC(C)C(=O)Nc1nnc(C(C)C)s1 (stereo not drawn)	164	i	0.93	-4	·	·	-3.1
O=C1C2CCCN2C(=O)N1CCCCN1CCN(CCO)CC1 (stereo not drawn)	109	i	1.1	-4	-25	140	-0.2
N#Cc1ccc(S(=O)(=O)N2CCc3[nH]c4ccc(F)cc4c3C2)cc1	105	i	0.91	·	·	·	·
CC(C)C(=O)Nc1ccc(NC(=S)NC(=O)c2cc3ccccc3o2)cc1	97	i	0.93	3	·	·	·
CC(C)(C)S(=O)(=O)c1cnc(-c2ccc(Cl)cc2)nc1N	101	i	1.2	·	·	·	·
Cc1ccc(SCC(=O)NCCSC(C)(C)C)cc1	100	i	0.87	3	-41	147	-0.4
COc1ccc(OC)c(-c2cc(C(=O)NCc3ccco3)no2)c1	98	i	0.88	-7	·	·	-2.5
O=C(NC1CCCCCCC1)c1c(O)c2ccccc2[nH]c1=O	108	i	0.85	-4	35	78	0.1

# Marked active in RGS16-Gao HTS, among the entries above:
canonical_smiles | RGS16-Gao HTS | HSV augment | HSV augment primary fold | PKD1 kinase inh | GALR2 ag
Cc1cc(C)c2c(=O)n(CC(=O)Nc3ccc(Cl)cc3)sc2n1 | 12* | i | 0.98 | · | ·

# Following part:
SMILES	RGS16-Gao HTS	HSV augment	HSV augment primary fold	PKD1 kinase inh	Insulin prom inh	Insulin prom inh cell count	GALR2 ag
Nc1cc(=O)[nH]c(SCC(=O)Nc2cc(S(=O)(=O)N3CCOCC3)ccc2Cl)n1	102	i	0.91	1	·	·	·
Cc1ccc(NC(=O)N2CCOCC2)c(C)c1	99	i	1.2	12	-19	57	-1.4
O=C(CNC1CCCCC1)Nc1cc(S(=O)(=O)N2CCOCC2)ccc1Cl	104	i	0.91	0	·	·	·
CCn1c(=O)cc(OCC(=O)N(C)C2CCCCC2)c2ccccc21	92	i	0.82	8	·	·	0.1
CC(=O)c1c(N2CCCCC2)nc(=S)n(-c2ccccc2)c1C	144	i	1	-7	·	·	-0.4
